MT1-MMP act inh: blocks activation of human MT1-MMP | HT1080 RFP-PRO-GFP cells, GFP/RFP ratio fluorescence, overnight; percent of plate control window, DMSO zero | GFP/RFP ratio change, % at 20 µM | 360,000 tested, 0.061% active | AID 651647;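 active = GFP/RFP ratio change of at least 30% with cell ATP level not reduced by more than half and red fluorescence within 50% of control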; note: strong numbers were not always called active
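Material – HT1080 RFP-PRO-GFP cells · Control set – DMSO wells and RFP-L50D-GFP cells · Incubation – overnight cell settling, then overnight compound exposure, 37 °C, 5% CO2 · Compound dosing – single-point 20 µM compound, 1% DMSO · Read-out – GFP/RFP fluorescence ratio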
Rce1 inh: blocks yeast Ras-converting enzyme | Q03530 | yeast membranes, quenched prenylated peptide cleavage fluorescence | calls only | 290,000 tested, 0.27% active;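 active = fall in fluorescence gain of 50% or more versus controls, with final raw signal at or below 3038400; inconclusive = same 50% fall but final raw signal above 3038400; inactive = fall in fluorescence gain under 50%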;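 note: plate controls were neutral control wells for no effect and wells lacking membranes for full effect; tested at 10 µM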
Target sequence (Q03530 whole entry, looked up): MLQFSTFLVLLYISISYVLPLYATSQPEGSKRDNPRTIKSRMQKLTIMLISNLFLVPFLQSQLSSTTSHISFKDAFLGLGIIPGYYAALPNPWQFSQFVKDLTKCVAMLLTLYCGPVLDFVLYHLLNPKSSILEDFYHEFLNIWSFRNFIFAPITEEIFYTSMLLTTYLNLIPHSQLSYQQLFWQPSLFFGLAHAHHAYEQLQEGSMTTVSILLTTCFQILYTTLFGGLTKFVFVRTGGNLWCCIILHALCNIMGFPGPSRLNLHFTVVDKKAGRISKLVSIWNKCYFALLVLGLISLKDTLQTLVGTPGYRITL
PABP polyA inh: PABP-poly(A) binding inhibition | PABP-poly(A) RNA binding, fluorescence polarization | AID 2014 | inhibition, % at 35 µM | 290,000 tested, 1% active | P11940;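 active = 50% or more with normal probe brightness, or confirmed in later tests; inconclusive = above 50% with abnormal brightness, or retests that disagree; inactive = below 50% or failed in later tests; about a fifth of its hits are not listed in these tables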;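 note: calls also rest on retests at 20 µM and on dose response follow-up; controls were probe without protein and protein plus probe with vehicle; some compounds called inactive have numbers as strong as hits; many hits fall short of the cut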
CSC inhib: blocks cancer stem cells | 300,000 tested, 1.1% active | inhibition, % at 7.5 µM | AID 2717 | cancer stem cell-like cells viability, luminescence;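 active = mean at 75% or more and at least half the replicates too; inconclusive = mean and replicates disagree; tested in HMLE shEcad cells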;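 note: 0% = median of negative and 100% = median of positive control wells; the first replicate is given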
eIF4H inh: inhibitors of RNA binding by human eIF4H; Q15056; inhibition, % at 35 µM; eIF4H fluorescence polarization binding assay; 290,000 tested, 0.94% active;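 active = 50% or more with normal probe brightness, or confirmed in later tests; inconclusive = above 50% with abnormal brightness, or retests that disagree; inactive = below 50% or failed in later tests; about a fifth of its hits are not listed in these tables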;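 note: calls also rest on retests at 20 µM and on dose response follow-up; 0% = protein and probe with vehicle and 100% = probe without protein; strong numbers were not always called active; many hits fall short of the cut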
Env fusion inh: blocks HIV Env-driven cell-cell fusion; HeLa-JRFL Env/CEM21 cell fusion, luciferase; inhibition, % at 12.3 µM; 360,000 tested, 1.1% active; AID 651610;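 active = mean replicate inhibition score of at least 50 and every replicate individually at or above 50; inconclusive = only one of the two criteria met; inactive = mean below 50 and not all replicates reaching 50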;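 note: 0% = plate neutral controls and 100% = maraviroc near 300 nM; one replicate is shown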
UUG fidelity: yeast start codon fidelity modulation. activity score, % at 18.7 µM. S. cerevisiae UUG-firefly luciferase reporter, luminescence/redox ratio. AID 602363. 350,000 tested, 0.13% active;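 active = replicate mean at a twofold rise or more, about +100% in these data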;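 note: firefly luciferase made from a UUG start codon reports start codon fidelity; reporter light over untreated wells divided by growth signal over untreated wells; some hits fall short of that in this replicate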
eIF4H inh retest: also measured in eIF4H inh; calls as there; inhibition, %; compound at 20 µM; confirmation average;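 mean of two retest wells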
PABP polyA inh retest: further read-out of PABP polyA inh, marked with its call; inhibition, %; compound at 20 µM; confirmation repeats;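 mean of two retest wells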
MT1-MMP act inh RFP: also measured in MT1-MMP act inh; calls as there; RFP signal change, %; measured here: RFP expression control read;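 0 = vehicle wells; hits needed this value within 50% of zero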
Active calls of the source: *; i = inactive; u = inconclusive; x = not tested or not shown. An unsorted share of the library; overall some 2.9% were active at least once.

SMILES	MT1-MMP act inh	MT1-MMP act inh RFP	Rce1 inh	PABP polyA inh	CSC inhib	eIF4H inh	Env fusion inh	UUG fidelity	others
Cc1ccc(C)c(OCc2nnc(NC(=O)c3ccc4c(c3)OCO4)s2)c1	8	5	i	-6	-5	4	5	x
CC(=O)Nc1ccc(-c2ccnc3c2CC(C(=O)NCc2ccccc2)O3)cc1 (stereo not given)	14	2	x	x	x	x	-111	11
COc1ccc2ccccc2c1CN1CCN(C(=O)c2ccco2)CC1	-4	-4	i	0	x	10	5	8
CCCn1c(NCc2cccs2)nc2ccccc21	1	3	i	-5	6	2	x	3
O=C(CCN1CCN(c2ccccc2)CC1)Nc1ccc2c(c1)OCO2	7	2	x	0	-11	4	-12	-13
CC(Sc1nc(-c2ccccc2)cc(C(F)(F)F)n1)C(=O)O (stereo not given)	3	5	i	10	-1	-2	25	x
CC(=O)NC(CC(=O)N(Cc1ccccc1)c1cccc(C)c1)c1ccccc1 (stereo not given)	-4	-2	i	-6	5	-13	-23	7
CC(=O)c1ccccc1OCCOCCOCCOc1ccccc1C(C)=O	2	-5	i	1	-10	-2	15	7
CC(C)(C)NC(=S)NNC(=O)c1ccc2ncccc2c1	1	2	x	-5	-1	-5	-37	-31
COc1cccc(CNC(=O)Cn2cc3c(n2)CCCC3)c1	1	6	i	2	-15	-5	-30	-4
C/C(=N\NC(=O)CN1CCN(S(=O)(=O)c2ccc(C)cc2)CC1)c1ccc(O)cc1	-5	0	i	7	-6	-3	-2	-24
Nc1c(-c2ccccc2)cnc2cc(-c3ccccc3)nn12	8	-3	i	-8	x	-11	-263	x
CC1=Nc2ccccc2N=C(NC(=O)c2ccccc2)C1c1ccccc1 (stereo not given)	2	-3	i	-4	-13	-5	24	-14
C=CCn1cccc(C(=O)Nc2cc(OC)cc(OC)c2)c1=O	-3	-4	i	-9	6	-5	10	-7
CCOC(=O)C1CCCN(S(=O)(=O)c2c(C(=O)N3CCCCC3)c(C)n(C)c2C)C1 (stereo not given)	-1	4	i	9	1	0	2	8
COC(=O)[C@]1(C)N[C@H](CN(C)S(=O)(=O)c2ccc(C)cc2)[C@@H]2C(=O)N(C)C(=O)[C@@H]21	-2	3	x	x	x	x	-22	5
CC1(C)Cc2c(ccc3ccccc23)C(=O)N1	-19	-10	i	-9	-12	-7	80*	0
CC(=O)c1ccc(CCCC(=O)O)cc1	-2	-1	i	4	-5	0	-35	-15
Cn1c(CCN2CCN(c3ccccn3)CC2)nc2cc(NC(=O)COc3ccccc3)ccc21	1	-18	i	0	-8	-15	7	-9
COc1ccccc1-n1c(SCC(N)=O)nc2c(c1=O)SCC2	0	3	i	2	x	-4	-26	-13
CCCCCCCC1c2c(c(C)c(C)oc2=O)Oc2c(C)c(C)oc(=O)c21	-2	-6	x	x	-3	x	4	3
CC(=O)Nc1ccc(S(=O)(=O)NC2(C(F)(F)F)NC(=O)N(c3ccc(C)cc3)C2=O)cc1 (stereo not given)	-4	-2	x	-7	0	3	-27	-98
Nc1nc2c(Cl)ccc(Cl)c2s1	0	1	i	-28	-10	2	-27	x
O=[N+]([O-])c1ccc(-c2nnc(S)n2-c2ccccc2)cc1	x	x	i	-3	30	-6	x	x
CCc1ccc(NC(=S)NC2CCN(Cc3ccccc3)CC2)cc1	6	1	i	3	20	11	6	x
Cc1cc(C(F)(F)F)nn1CC(=O)NCc1cccs1	-1	1	x	3	1	2	20	x
CN(C)CCN(C(=O)c1ccc(N2C(=O)CCC2=O)cc1)c1nc2cc3c(cc2s1)OCO3	3	10	i	0	8	-10	8	-12
Cc1ccc(N2CN(Cc3cccnc3)CNC2=S)cc1	0	5	i	-11	-16	-9	-28	-22
O=C(COc1ccc(Br)cc1)Nc1nnc(C2CC2)s1	-4	-2	x	x	x	x	-4	-21
CC(=O)N1c2ccc(S(=O)(=O)N3CCCC(C(=O)N4CCCCC4)C3)cc2CC1C (stereo not given)	-1	-7	i	-10	-22	-4	14	16

Overlap with the part before: 2 entries, then new ones.
SMILES	MT1-MMP act inh	MT1-MMP act inh RFP	Rce1 inh	PABP polyA inh	CSC inhib	eIF4H inh	Env fusion inh	UUG fidelity	others
O=C(COc1ccc(Br)cc1)Nc1nnc(C2CC2)s1	-4	-2	x	x	x	x	-4	-21
CC(=O)N1c2ccc(S(=O)(=O)N3CCCC(C(=O)N4CCCCC4)C3)cc2CC1C (stereo not given)	-1	-7	i	-10	-22	-4	14	16
O=C(NCCCN1CCN(c2ccc(F)cc2)CC1)C1CCCN(c2ncnc3c2nc2n3CCCCC2)C1 (stereo not given)	2	-9	i	-3	21	6	-7	0
Cc1ccc(OCC(=O)Nc2ccc(C(=O)O)cc2NC(=O)COc2ccc(C)c(C)c2)cc1C	2	0	i	4	-11	5	3	5
Cc1ccc(C(=O)N/C(=C/c2cccs2)C(=O)NCCc2c[nH]c3ccccc23)cc1	-3	-9	i	-4	-1	-9	-9	-4
Cc1nnc(NC(=O)CSc2nnc(CNC(=O)c3ccc(F)cc3)o2)s1	2	4	i	-2	-6	10	8	-13
CN(C(=O)c1cc2n(n1)C(C(F)(F)F)CC(c1ccco1)N2)c1ccccc1 (stereo not given)	-2	4	i	25	-4	3	x	0
COc1ccc(NS(=O)(=O)c2ccc(C(=O)N(C)Cc3ccc(C)o3)cc2)cc1	4	-15	x	x	-17	x	6	11
CC1(C)CC(=O)C=C(Nc2ccc(F)cc2F)C1	0	5	i	2	-7	4	x	-3
CC1CCN(C(=S)NC(=O)c2cccs2)CC1	5	4	i	-9	-3	-14	-42	x
O=S1(=O)c2cccc3cccc(c23)N1CCBr	2	4	x	8	-1	-14	-13	-16
C=CCn1c(N)c(C(=O)NCCC2=CCCCC2)sc1=S	4	0	i	-5	-1	-7	x	-19
COCCNC(=O)c1cc(-c2cccc(OC)c2)on1	8	6	i	-9	-8	4	-131	-15
CC(C)CN1C(=O)c2ccc(NC(=O)c3cccs3)cc2C1=O	1	-5	i	-7	x	-8	-18	-28
CCn1c(SCC(=O)Nc2nccs2)nnc1-c1cc2cccc(OC)c2o1	8	1	x	-3	x	3	-32	x
Cn1cc(C(=O)N2CCN(c3ccccn3)CC2)c(=O)c2cc(S(=O)(=O)N3CCOCC3)ccc21	0	0	x	2	x	7	-9	-7
Cc1ccc(C(=O)NCN2CCN(c3ccccc3)CC2)cc1	-1	2	x	x	x	x	-9	-11
COCCCNC(=O)c1cc2cc(Br)ccc2oc1=O	0	1	i	2	1	1	4	x
O=C(NC1CCCCC1)C(c1ccco1)N(C(=O)c1csnn1)c1ccccc1 (stereo not given)	-4	-1	i	-6	-21	-8	3	-5
CN(C)c1ccc(/C=C2\NC(=S)N(Cc3ccccc3)C2=O)cc1	-194	-4	i	u	19	u	x	x
O=C(Nc1nnc(COc2ccc(F)cc2)s1)Nc1ccccc1F	-2	0	i	-8	18	-2	-2	-7
CC1=CC(C)(C)N(C(=O)c2ccc(F)cc2)c2cc3c(cc21)OCO3	-11	-9	i	2	-2	0	-58	-21
COc1ccc(C)cc1NC(=O)n1ncc2cc(Cl)ccc21	1	5	i	-2	9	-3	-6	-11
O=C(O)CCc1ccc(-c2ccc(Cl)cc2)n1CC(=O)O	-8	2	i	26	-11	21	x	-6
CSc1nc2ccsc2c(=O)n1-c1ccccn1	0	3	i	-1	-1	-7	8	x
COc1cc(C(=O)Nc2ccc3c(c2)OCCO3)ccc1OC(F)F	0	-2	i	-3	-1	-2	-130	-13
CCn1c(SCC(=O)N2CCCC2=O)nc2ccccc21	1	11	x	x	x	x	-5	-21
COc1ccc(/C(O)=C/c2nc3ccccc3n(-c3ccccc3)c2=O)cc1	-20	-2	i	121	65	127	x	x	eIF4H inh retest=10;PABP polyA inh retest=-2

Compounds listed so far that have an aryl methoxy group:
SMILES	MT1-MMP act inh	MT1-MMP act inh RFP	Rce1 inh	PABP polyA inh	CSC inhib	eIF4H inh	Env fusion inh	UUG fidelity	others
COc1ccc2ccccc2c1CN1CCN(C(=O)c2ccco2)CC1	-4	-4	i	0	x	10	5	8
COc1cccc(CNC(=O)Cn2cc3c(n2)CCCC3)c1	1	6	i	2	-15	-5	-30	-4
C=CCn1cccc(C(=O)Nc2cc(OC)cc(OC)c2)c1=O	-3	-4	i	-9	6	-5	10	-7
COc1ccccc1-n1c(SCC(N)=O)nc2c(c1=O)SCC2	0	3	i	2	x	-4	-26	-13
COc1ccc(NS(=O)(=O)c2ccc(C(=O)N(C)Cc3ccc(C)o3)cc2)cc1	4	-15	x	x	-17	x	6	11
COCCNC(=O)c1cc(-c2cccc(OC)c2)on1	8	6	i	-9	-8	4	-131	-15
CCn1c(SCC(=O)Nc2nccs2)nnc1-c1cc2cccc(OC)c2o1	8	1	x	-3	x	3	-32	x
COc1ccc(C)cc1NC(=O)n1ncc2cc(Cl)ccc21	1	5	i	-2	9	-3	-6	-11
COc1cc(C(=O)Nc2ccc3c(c2)OCCO3)ccc1OC(F)F	0	-2	i	-3	-1	-2	-130	-13
COc1ccc(/C(O)=C/c2nc3ccccc3n(-c3ccccc3)c2=O)cc1	-20	-2	i	121	65	127	x	x	eIF4H inh retest=10;PABP polyA inh retest=-2

High-throughput results: PubChem BioAssay, several laboratories
